Bioassay records as filed in PubChem BioAssay.
CtBP-E1A inh = qHTS Assay for Inhibitors of the CtBP/E1A Interaction. activity change, % (concentration not given with the values). AID 651724, 2012. CtBP / adenovirus E1A interaction (AlphaScreen). AlphaScreen GST-E1A/His-CtBP binding, 1536-well; active compounds read low; control for the full effect not named in the record. 340,000 tested, 0.49% active; in the data active means activity change below about -65%; inconclusive means about -30% to -65%; inactive means above about -30%; also: % is scaled to controls: 0 for no effect and ±100 for the full control effect
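Homogeneous bead-based format: GST-tagged E1A captured on glutathione donor beads, His-tagged CtBP on nickel acceptor beads; compounds precede bead addition by 2 h at 37 °C.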
Six1-Eya2 blk = qHTS Assay for Inhibitors of the Six1/Eya2 Interaction; AlphaScreen GST-Six1/His-Eya2 binding, biochemical; active compounds read low; control for the full effect not named in the record; activity change, % (concentration not given with the values); 360,000 tested, 0.56% active; in the data active = activity change below about -65%; inconclusive = about -30% to -65%; inactive = above about -30%; also: % is scaled to controls: 0 for no effect and ±100 for the full control effect
Target sequence (O00167 whole entry, looked up): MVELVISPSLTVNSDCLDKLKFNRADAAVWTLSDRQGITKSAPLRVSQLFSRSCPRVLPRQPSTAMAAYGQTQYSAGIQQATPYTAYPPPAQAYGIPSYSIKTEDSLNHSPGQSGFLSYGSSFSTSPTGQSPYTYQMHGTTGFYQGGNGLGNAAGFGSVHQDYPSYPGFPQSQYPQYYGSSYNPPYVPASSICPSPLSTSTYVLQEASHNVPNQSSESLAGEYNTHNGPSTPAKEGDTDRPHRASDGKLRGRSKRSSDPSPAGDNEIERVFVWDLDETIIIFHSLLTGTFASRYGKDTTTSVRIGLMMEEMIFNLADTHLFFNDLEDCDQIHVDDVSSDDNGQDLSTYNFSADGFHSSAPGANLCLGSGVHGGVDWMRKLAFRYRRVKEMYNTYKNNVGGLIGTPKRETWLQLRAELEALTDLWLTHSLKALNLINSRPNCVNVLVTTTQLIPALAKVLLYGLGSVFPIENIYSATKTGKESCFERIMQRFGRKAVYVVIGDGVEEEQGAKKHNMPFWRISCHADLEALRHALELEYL
Target sequence (Q15475 whole entry, looked up): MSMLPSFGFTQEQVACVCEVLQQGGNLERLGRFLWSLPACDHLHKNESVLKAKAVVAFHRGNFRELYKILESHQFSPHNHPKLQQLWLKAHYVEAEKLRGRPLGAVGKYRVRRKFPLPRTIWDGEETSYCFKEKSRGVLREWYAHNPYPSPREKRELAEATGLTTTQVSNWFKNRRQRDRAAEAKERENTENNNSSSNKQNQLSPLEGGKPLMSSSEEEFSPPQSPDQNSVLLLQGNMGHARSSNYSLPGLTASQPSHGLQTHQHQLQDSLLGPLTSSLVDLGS
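Compounds are tested against tagged Six1 and Eya2 proteins bridged by glutathione donor and nickel acceptor beads; after a one-hour incubation at 37 °C without light, AlphaScreen emission is recorded.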
TRPML1 blocker = qHTS for Inhibitors of the Human Mucolipin Transient Receptor Potential 1 (TRPML1); Mucolipin-1 (Homo sapiens), Q9GZU1; TRPML1-inducible cells, Ca2+ dye fluorescence, FDSS; active compounds read low; inhibition of EC80 agonist-evoked calcium signal; activity change, negative = inhibition, % (test concentration not listed); 390,000 tested, 0.02% active; AID 624415, 2012; in the data active means activity change below about -50%; inconclusive means about -30% to -50%; inactive means above about -30%;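 also: stimulus is agonist 54-4 at its EC80 concentration; % is scaled to controls: 0 for no effect and ±100 for the full control effect; compound concentration not given in the record; the text of the record puts the active cut at -80%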
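Calcium fluorescence in TRPML1-DL cells induced overnight with Tet: a 110 s read after compound pin addition, then a 110 s antagonist read after challenge with 54-4 at 4 uM final (EC80).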
D2 potentiator = Beta-Arrestin HTS for Positive Allosteric Modulators of the Human D2 Dopamine Receptor: Potentiators; D(2) dopamine receptor (Homo sapiens), P14416; DiscoveRx D2 beta-arrestin cells, luminescence, 90 min; 100% = 57 uM dopamine signal; potentiation, % (no concentration beside the values); 360,000 tested, 0.23% active; active = potentiation of 50% or more; inconclusive = 30% to 50%; inactive = 30% or less;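 also: compound concentration not given in the record; tested on top of an EC20 dose of dopamine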
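D2 cells co-treated with compound plus 50 nM dopamine (EC20) for 90 min at 37 deg C to detect potentiation. Beta-arrestin recruitment was read as enzyme-fragment luminescence after 1 h at ambient temperature. Full response was set by 57 uM dopamine.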
TRPML1 agonist = qHTS for Agonists of the Human Mucolipin Transient Receptor Potential 1 (TRPML1) | AID 624414, 2012 | TRPML1-expressing cells, Ca2+ dye fluorescence, FDSS; host cell line not named in the record; reference of the full effect not given here | Mucolipin-1 (Homo sapiens), Q9GZU1 | activation, % (no concentration beside the values) | 410,000 tested, 0.12% active; in the data active = activation above about 50%; inconclusive = about 30% to 50%; inactive = below about 30%; also: 0% is about no effect; the text of the record puts the active cut at 80%
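Tetracycline-induced TRPML1-DL cells are seeded and incubated overnight before loading with a no-wash Ca2+ dye and quencher. Agonist activity is taken from the 110 s fluorescence read following compound pin-transfer on an FDSS, before EC80 54-4 challenge.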
TRPV1 potentiator = HTS Assay for Compounds that Act as Potentiators of the Vanilloid Receptor 1; potentiation, % at 8.33 µM; 320,000 tested, 0.02% active; TRPV1-expressing cells, Fluo-8 calcium influx, capsaicin EC20 potentiation; host cell line not named in the record; control for the full effect not named in the record; AID 540277, 2011; Transient receptor potential cation channel subfamily V member 1 (Homo sapiens), Q8NER1; active means potentiation above 80%; inconclusive means 30% to 80%; inactive means below 30%; also: 0% is about no effect
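Fluo-8 calcium influx in TRPV1-expressing cells, kinetic read (ex 480/em 520 nm). Compound added and read 3 min for agonist activity, followed by capsaicin at EC20 final and 2 min further read for enhancement.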
* hit, by the source's call; ? = inconclusive; . = no result given; & = joins results of further samples.

Every second line gives: CtBP-E1A inh	Six1-Eya2 blk	TRPML1 blocker	D2 potentiator	TRPML1 agonist	TRPV1 potentiator
> CCOC(=O)N1CCN(Cc2nc3ccc([N+](=O)[O-])cc3c(=O)n2-c2ccc(OC)cc2OC)CC1
  -1	2	-4	4	-0.6	?
> COc1ccc2c(C)cc(SCc3c(C)noc3C)nc2c1
  35	11	-7	-1	3.0	-12
> O=C(Nc1ccc(Cl)cc1)c1csc(Cc2ccccc2)n1
  .	3	-1	-18	2.8	-7
> CC(C)(C)Cc1c(-c2cccc(Br)c2)nc2ccc(Br)cn12
  7	-2	.	-15	0.6	.
> O=C(c1ccccc1)c1ccccc1C(=O)N1CCN(C(=O)c2ccccc2)CC1
  6	4	-7	-3	0.0	3
> O=C(CSc1nnc(CNC(=O)c2c(F)cccc2F)o1)c1ccc(Cl)cc1
  4	-2	5	-7	-0.9	.
> COc1cccc(C(=O)Nc2cc(C(=O)NCc3ccc(C)cc3)ccc2N2CCC3(CC2)CC(c2ccccc2)=NO3)c1
  2	-4	-4	-5	-0.1	5
> CCC(C)N1CCN(S(=O)(=O)c2ccc(NC(C)=O)cc2)CC1 (stereo unspecified)
  .	-3	-5	-4	0.9	-12
> Cc1cc2c(cc1S(=O)(=O)N1CCCC1)n(C)c(=O)c(=O)n2C
  1	1	23	0	1.6	-7
> O=C(COC(=O)C12CC3CC(CC(C3)C1)C2)Nc1ncc(Cl)cc1Cl
  0	-2	27	-5	2.7	-13
> COc1cc(C)ccc1OCc1cc(C(=O)N2C[C@H]3CC[C@H]2C3)no1
  3	1	3	-1	-1.9	-11
> O=C(OCC(=O)N1CCN(C(=O)c2ccco2)CC1)c1cccc(F)c1
  -24	-1	-3	-2	2.1	2
> CC(C)C[C@H]1CN(CCCC[C@@H]2CNC(=O)C(=O)N2CC2CCCCC2)C(=O)C(=O)N1CCc1ccc(O)cc1
  2	4	.	.	-0.4	.
> O=C(COC(=O)c1cncc(Br)c1)Nc1nnc(-c2ccccc2)o1
  ?	-25	14	-20	-0.6	.
> C#CCN1C(=O)C(O)(CC(=O)c2ccc3c(c2)OCCO3)c2ccccc21 (stereo unspecified)
  4	4	0	-17	-0.2	17
> CC(=O)Oc1ccc(C)cc1N1C(=O)c2ccc(C(=O)O)cc2C1=O
  0	-3	0	-21	-1.1	29
> COC(=O)c1ccc2ccccc2c1OC1OC(CO)C(O)C(O)C1NC(C)=O (stereo unspecified)
  .	-3	.	-12	.	18
> O=C(COC(=O)CCCN1C(=O)c2ccccc2C1=O)Nc1cc(Cl)cc(Cl)c1
  0	-7	6	-2	1.7	8
> CC1CCC(C(C)C)C(OC(=O)Cn2c(-c3ccc(Br)cc3)[n+](C)c3ccccc32)C1 (stereo unspecified)
  .	-14&8	45&63	-13&-4	3.5&2.8	-9&-4
> COc1cccc2sc3cc(C#CC4(O)CCCCC4)ccc3c(=O)c12
  22	16	16	10	2.3	.
> CC1(C)COC(c2cc([N+](=O)[O-])ccc2Cl)=N1
  3	4	11	0	-0.3	0
> N#CCC(=O)Nc1ccc(C(=O)OCC(=O)NCc2ccc3c(c2)OCO3)cc1
  5	-7	5	9	0.2	-7
> CC(=O)Nc1ccc(C(=O)NC2CCSc3ccccc32)cc1 (stereo unspecified)
  -1	3	27	-11	1.2	-5
> CCOc1ccc(CCNC(=O)COC(=O)c2cc(=O)[nH]c3ccccc23)cc1OCC
  9	-3	-2	0	0.0	-5
> COc1cc(/C=N/NC(=S)NCCN2CCOCC2)ccc1O
  -1	-7	44	-25	1.0	3
> COc1ccccc1/C=C(\NC(=O)c1ccc(OC)c(OC)c1)C(=O)Nc1cc([N+](=O)[O-])ccc1C
  -3	-1	11	0	3.2	4
> Cc1noc(C)c1NC(=O)Nc1ccc2c(c1)CC(=O)N([C@@H](C)CO)C[C@@H](C)[C@@H](CN(C)C(=O)Nc1cccc3ccccc13)O2
  -4	0	-21	-6	0.3	.
> CCN(CC)C(=O)CSc1nc2ccccc2c(=O)n1CCC(=O)NCCc1ccc(OC)c(OC)c1
  -1	7	10	0	-0.6	-6
> COc1cccc(-n2cc(CNC(=O)C3CCC(=O)N(C4CC4)C3)cn2)c1 (stereo unspecified)
  12	1	25	3	0.1	3
> O=C(COc1ccccc1Cl)N1N=C(c2cccs2)CC1c1ccco1 (stereo unspecified)
  2	-5	15	1	1.3	-9
> CCOCC(=O)Nc1cccc(OC)c1
  10	12	10	3	0.4	-1
> Cc1ccccc1Nc1c(-c2ccc(N3CCOCC3)cc2)nc2ncccn12
  13	6	9&20	-4	-1.0&-0.3	-3
> Cc1ccc(S(=O)(=O)Nc2ccc(Cl)cc2)cc1NC(=O)c1cc2c(s1)CCCC2
  0	-5	4	72*	2.5	12
> CC1(C)CC(N(Cc2ccccc2)C(=O)Cc2ccccc2)CCO1 (stereo unspecified)
  3	-5	2	-9	3.3	-5
> CSCC[C@H](NC(=O)OC(C)(C)C)C(=O)NCC1CCC(C(=O)O)CC1 (stereo partly specified)
  -20	-10	.	-5	.	6
> CC(=O)c1ccc(Sc2ccccc2N)c([N+](=O)[O-])c1
  .	-17	35	-20	-0.5	-12
> Cc1ccc(S(=O)(=O)Nc2ccccc2C(=O)N2CCCC2)cc1
  3	7	0	-24	1.1	6
> Cc1cc(NC(=O)COC(=O)CNS(=O)(=O)c2c(F)cc(F)cc2Br)no1
  5	-2	-7	2	-0.6	.
> O=C(CN1C(=O)c2ccccc2S1(=O)=O)N1CCN(c2ccccc2F)CC1
  2	0	1	-5	-0.4	3
> COCCN1C(=O)CCC1(C)C(=O)Nc1ccc2c(c1)OCCO2 (stereo unspecified)
  0	9	.	1	-0.2	.
> CSc1nc(N)c2c(n1)OC(N)=C(C#N)C2c1cccnc1 (stereo unspecified)
  -11	-3	-7	2	0.2	9
> O=C1CSC(=Nc2ccc(Cl)cc2)N1
  .	-3	.	8	.	-1
> CCOC(=O)C1=C(C)N(C[C@@H]2CC[C@@H](Cc3ccc(-c4ccccc4)cc3)O2)C(=O)NC1c1ccc([N+](=O)[O-])cc1 (stereo partly specified)
  -19	-21	9	.	0.0	.
> CCC(C)NC(=O)c1ccc2c(SCC(=O)O)c3c(nc2c1)CCCC3 (stereo unspecified)
  0	-2	-9	11	0.5	10
> COC(=O)C(c1ccccc1)C(CC(=O)c1ccccc1)c1ccccc1 (stereo unspecified)
  5	1	-3	-1	2.7	.
> CCS(=O)(=O)c1ccc2oc(Nc3ccccc3Cl)nc2c1
  -19	-10	15	-2	0.3	2
> Cc1cc(C)c2c(CC(=O)Nc3ccc(Cl)cn3)coc2c1
  0	8	-12	-8	2.0	3
> COc1ccccc1C(=O)C1CCCN(C(=O)c2cccc(-n3cccn3)c2)C1 (stereo unspecified)
  .	1	-5	-12	-0.4	2
> CCOc1cc(C(c2c(C)[nH][nH]c2=O)c2c(C)[nH][nH]c2=O)ccc1O
  -6	-9	-5	4	0.7	14
> COC(=O)c1ccccc1NC(=O)CSc1nnnn1C1CCCCC1
  5	6	-11	-1	7.4	7
> COC(=O)CCC(=O)N1CCCC(N2CCN(c3cccc(C(F)(F)F)c3)CC2)C1 (stereo unspecified)
  0	9	9	-9	-0.7	-11
> COc1ccc(NS(=O)(=O)c2cccc(C(=O)N3CCN(S(=O)(=O)c4ccccc4)CC3)c2)cc1
  1	5	0	4	-0.3	.
> CN1C(=O)/C(=C\C(=O)c2cccs2)c2ccccc21
  7	5	-5	-4	0.0	3
> O=S(=O)(Nc1nccs1)c1ccc(Br)cc1
  6	3	20	-5	0.8	1
> CCOC(=O)c1sc(NC(C)=O)nc1C
  -1	3	-15	4	0.9	1
> CCN(C(=O)CSc1nnnn1C)C1CCS(=O)(=O)C1 (stereo unspecified)
  -3	5	5	-6	-0.1	-2
> O=C(NCCC1CCCCN1S(=O)(=O)c1ccccc1)C(=O)Nc1ccc(F)cc1 (stereo unspecified)
  0	0	-4	2	0.4	4
> O=C(Nc1ccc2nc(SCc3ccc(Cl)cc3)sc2c1)c1ccccc1C(=O)N1CCOCC1
  0	-13	6	16	2.5	8
> Cc1ccc(C(C(=O)NCc2ccccc2)N(Cc2cccs2)C(=O)c2ccc3c(c2)OCCO3)cc1 (stereo unspecified)
  -16	-8	-1	27	6.6	26
> CC1CCCN(C(=O)Cn2c(-c3nonc3N)nc3ccccc32)C1 (stereo unspecified)
  -2	-2	-1	-25	-0.5	-15

Following part:
Every second line gives: CtBP-E1A inh	Six1-Eya2 blk	TRPML1 blocker	D2 potentiator	TRPML1 agonist	TRPV1 potentiator
> CC(C)(C)c1cc(NC(=O)c2ccc(OC3CCCC3)cc2)no1
  14	8	-13	-5	4.4	-13
> Cc1cccc(/C=N/NC(=O)CN2CCCCCCC2)c1
  5	4	-25	-12	-0.2	-4
> CCN(C(=O)CSc1nnc(CNc2cccc(OC)c2)n1C1CCCCC1)C1CCS(=O)(=O)C1 (stereo unspecified)
  -3	-4	4	-18	0.6	-2
> Nc1ncnc2c1ncn2[C@@H]1O[C@H](CNC(=O)[C@@H](N)CO)[C@@H](O)[C@H]1O
  3	5	-2	.	-0.6	.
> CN(Cc1ccccc1)C(=O)[C@@H]1CCCN1C(=O)[C@@H]1CCCN1C(=O)c1cccc(Cl)c1
  3	1	.	.	-0.8	.
> c1ccc(-c2nc3ccccc3[nH]2)cc1
  -22	7	8	-7	0.0	2
> Cc1ccc(CON=C2CCN(c3ncc(C(F)(F)F)cc3Cl)CC2)cc1
  -5	-6	92	-3	0.2	4
> CSc1nc2c(cc1C#N)CCC2
  1	4	9	-2	0.6	-12
> Cc1ccccc1CSCC(=O)Nc1c(C)n(C)n(-c2ccccc2)c1=O
  25	22	-13	1	-0.5	10
> COc1ccc(OC)c(NC(=O)c2ccc(NC3=NC4CS(=O)(=O)CC4S3)cc2)c1 (stereo unspecified)
  -11	-6	56	-3	-0.2	-2
> O=c1ccc(-c2ccccc2)nn1Cc1ccc(Cl)cc1
  10	0	11	0	3.1	.
> Cc1csc(=O)n1CC(=O)OCC(=O)c1c(N)n(C)c(=O)n(C)c1=O
  -1	-7	3	-68	0.1	-1
> Cc1cccc(NC(=O)c2ccc(C(=O)c3ccccc3)o2)c1
  -8	-2	-12	-32	-1.1	-3

Entries listed so far containing a tert-butyl group, in the order listed:
Every second line gives: CtBP-E1A inh	Six1-Eya2 blk	TRPML1 blocker	D2 potentiator	TRPML1 agonist	TRPV1 potentiator
> CC(C)(C)Cc1c(-c2cccc(Br)c2)nc2ccc(Br)cn12
  7	-2	.	-15	0.6	.
> CSCC[C@H](NC(=O)OC(C)(C)C)C(=O)NCC1CCC(C(=O)O)CC1 (stereo partly specified)
  -20	-10	.	-5	.	6
> CC(C)(C)c1cc(NC(=O)c2ccc(OC3CCCC3)cc2)no1
  14	8	-13	-5	4.4	-13

Outcome played no part in choosing rows; 0.95% or so of the library scored in one or more.
